HCMV NEC inh – disrupts HCMV UL50-UL53 complex binding. HTRF UL50-UL53 interaction, normalized percent inhibition. inhibition, % (test concentration not listed). actives 0.15% (n = 190,000). AID 1918969;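 active = both replicates at 50% or more, plus weaker picks with an unusually low signal ratio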;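 note: stock transfer was 100 nL into about 20 µL; 0% = negative control wells and 100% = wells with untagged competitor protein; inactives centre near -12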
Sa growth 42C – inhibitors of Staphylococcus aureus growth at 42 °C | S. aureus RN4220 growth, OD600, 20 h; stronger effect = lower value | relative growth, % (no concentration beside the values) | actives 0.53% (n = 170,000) | AID 720641;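 active = growth at 42 °C up to 50% and 20 or more points under that at 30 °C, or under 10% at both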;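 note: 300 nL library stock went into each well; scaled to the means of positive and negative controls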
GIV Gai3 FP – GIV-Galpha-i interaction inhibition; Galpha-i3/FITC-GIV peptide fluorescence polarization, 90 min; stronger effect = lower value; scaled: aluminum fluoride 0%, vehicle 100%; actives 0.42% (n = 210,000); AID 1224905; P08753; percent of control (FP), % (concentration not given with the values);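 active = replicate mean at 85% of control or lower, very high polarization wells dropped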;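 note: wells of about 15 µL received 100 nL stock; the first replicate is given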
Target sequence (P08753 whole entry, looked up): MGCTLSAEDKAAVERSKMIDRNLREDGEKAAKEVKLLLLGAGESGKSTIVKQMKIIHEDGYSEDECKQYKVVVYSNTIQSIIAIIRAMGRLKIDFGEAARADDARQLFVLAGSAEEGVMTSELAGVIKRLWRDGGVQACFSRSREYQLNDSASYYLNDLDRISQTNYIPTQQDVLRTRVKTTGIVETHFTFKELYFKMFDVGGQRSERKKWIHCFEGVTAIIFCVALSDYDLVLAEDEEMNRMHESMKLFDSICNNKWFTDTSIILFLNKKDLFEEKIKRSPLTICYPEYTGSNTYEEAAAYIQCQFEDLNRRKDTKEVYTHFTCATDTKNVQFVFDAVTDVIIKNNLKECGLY
Sa growth 42C second temp – second read-out of Sa growth 42C, no call of its own (marks repeat the call); relative growth, %; measured here: growth at 30 °C;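 optical density after 20 h as mean of two plates; 100% = untreated growth and lower means inhibition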
An asterisk follows results filed as active; nt = no result given; & = joins results of further samples.

SMILES	HCMV NEC inh	Sa growth 42C	Sa growth 42C second temp	GIV Gai3 FP
O=C(N=C1c2ccccc2CN1c1ccc2c(c1)OCO2)c1ccco1	6	87	88	nt
O=C(N/N=C/c1cccnc1)c1[nH]nc2c1CCc1ccccc1-2	-34	97	95	98
CC(=O)Nc1ccc(C(C)(C)C)cc1C#N	3	88	97	102
Cc1ccc(-c2cc3ncc(C(=O)c4cc(F)ccc4O)cn3n2)cc1	18	nt	nt	99
COCc1[nH]nc2c1C(c1ccc(F)c(F)c1)C(C#N)=C(N)O2 (stereo unspecified)	-19	100	80	104
O=C(NCc1cccs1)c1ccccc1O	-18	92	76	91
O=C(NC1=NN(c2ccccc2)C(=O)C1)c1ccc(Br)s1	-19	79	16	nt
Cc1nn(-c2ccc(Cl)cc2Cl)c(=O)c2ccccc12	-14	87	80	102
CC(=O)N1CCOc2ccc(S(=O)(=O)NCCc3ccc(S(N)(=O)=O)cc3)cc21	-14	nt	nt	107
COc1ccccc1C1C2=C(CC(c3ccc(O)cc3)CC2=O)Nc2onc(C)c21 (stereo unspecified)	-20	nt	nt	106
CCC(=O)Nc1ccc(-c2nc3ccccc3o2)cc1	-17	101	86	102
CCOc1ccc(C(=O)Nc2ccc(-c3nn4c(C)nnc4s3)cc2)cc1	nt	76	90	103
O=S(=O)(c1ccc(N=c2scc(-c3ccco3)n2/N=C/c2ccc3c(c2)OCO3)cc1)N1CCOCC1	-15	95	97	nt
O=C(CCN1C(=O)c2ccccc2Sc2ncccc21)NC1CCCC1	nt	103	97	102
COc1ccc(-c2nc(CSc3nc4ccccc4n4c(C(C)C)nnc34)c(C)o2)cc1OC	-48	nt	nt	104
O=[N+]([O-])c1ccc(CNc2nc(NCc3cccc(C(F)(F)F)c3)nc3nc[nH]c23)cc1	-21&-25	nt	nt	108
CCOc1ccc(-n2c(SCC(=O)N3CCCc4ccccc43)nc3c([nH]c4ccccc43)c2=O)cc1	nt	117	91	98
Cc1cc(C)nc(N(C#N)C(=S)N(C)C)n1	-9	106	75	107
CCOC(=O)c1ccc(NC(=O)CSCC(=O)O)cc1	-3	103	97	102
COc1cccc(NC(=O)N(CCC(C)C)C2CCN(C(C)C)CC2)c1	nt	100	85	102
Cc1ccccc1CN(C)CC(O)COCc1ccc2c(c1)OCO2 (stereo unspecified)	-7	98	99	nt
CCC(C)NS(=O)(=O)c1cc(-c2cc(C)no2)sc1C (stereo unspecified)	-40	nt	nt	104
CCS(=O)(=O)n1nc(-c2ccc(OC)cc2OC)cc1N	-12	109	87	101
CC(C)COc1ccc(C(=O)N2CCN(CCc3ccncc3)CC2)cc1	8	81	93	95
Cc1c(Cl)cccc1NC(=O)Nc1nnc(N(C)Cc2ccccc2)s1	-3	105	88	99

Among those listed so far, two have a Cl atom:
SMILES	HCMV NEC inh	Sa growth 42C	Sa growth 42C second temp	GIV Gai3 FP
Cc1nn(-c2ccc(Cl)cc2Cl)c(=O)c2ccccc12	-14	87	80	102
Cc1c(Cl)cccc1NC(=O)Nc1nnc(N(C)Cc2ccccc2)s1	-3	105	88	99

Other compounds
SMILES	HCMV NEC inh	Sa growth 42C	Sa growth 42C second temp	GIV Gai3 FP
CC(C)(CO)NCc1cccs1	nt	96	89	97
CN1C(=O)C(=O)/C(=C(/O)c2ccccc2)C1c1ccccc1 (stereo unspecified)	-22	107	110	100
Cc1nnc(Oc2ccccc2C#N)c2ccccc12	-12	101	95	nt
O=S(=O)(Nc1ccon1)c1cc(F)ccc1F	-24	108	96	102
CN1C(=O)CC(Nc2cccc3cccc(N)c23)C1=O (stereo unspecified)	-78	95	74	94
CC(C)(C)NS(=O)(=O)c1ccc(/C=C/C(=O)O)cc1	2	96	110	106
COc1cc(OC)cc(-c2nnc(SCC(=O)N3CCC(C)CC3)o2)c1	-8	104	85	104
CCOc1cc(/C=C2\SC(=S)N(C(Cc3ccccc3)C(=O)O)C2=O)ccc1O (stereo unspecified)	-9	nt	nt	105
Cc1cc(C)nc(Nc2ncc(O)n2-c2ccc(Cl)cc2)n1	-32	89	77	110
O=C(Cc1c(Cl)cccc1Cl)NCC(c1ccco1)N1CCCC1 (stereo unspecified)	-9	96	100	nt
Clc1cccc(-c2nc(-c3ccccn3)no2)c1	-17	95	87	nt
C=CCN1CC(c2nc3ccccc3n2C(C)c2ccccc2)CC1=O (stereo unspecified)	nt	104	79	103
CCOC(=O)N1CCC(=NNC(=S)Nc2ccc(Cl)cc2Cl)CC1	-8	72	79	nt
CCN=c1sc(C(=O)OC)cc(=O)n1CC	nt	92	89	104
CC1CCCCN1C(=O)c1ccc2c(c1)N(Cc1ccc(F)cc1)C(=O)c1ccccc1S2(=O)=O (stereo unspecified)	-11	98	86	101
Cc1ccsc1CCNS(=O)(=O)c1c(C(=O)N2CCCC2)c(C)n(C)c1C	-24	93	77	96
CCN(CCO)C(=O)NC1CC(=O)N(c2ccc(C)cc2)C1 (stereo unspecified)	-17	92	84	98
Cc1ccc(C)c(NC(=O)CN(CCc2ccccc2)S(=O)(=O)c2ccccc2)c1	-27	114	85	106
O=C(CN1C(=O)c2ccccc2C1=O)NCC1COC2(CCCCC2)O1 (stereo unspecified)	-56	96	85	100
Cc1ccc(-n2c(C)cc(C(=O)COc3ccc(C#N)cc3)c2C)cc1	-28	89	87	nt
S=C1OC(c2ccccc2)=C/C1=C\N1CCCCC1	nt	85	62	96
Cc1ccccc1OCC1Cn2c(nc3c2c(=O)[nH]c(=O)n3C)O1 (stereo unspecified)	3	79	80	nt
COc1ccc(-n2ncc3c(N4CCc5ccccc54)ncnc32)cc1	-6	117	96	104
COc1ccc(CCNC(=O)CC(c2ccccc2)c2cc(C)ccc2O)cc1OC (stereo unspecified)	-6	107	46	101
Cc1cccc(N2CCN(C(=O)Cn3nc(Cc4cccnc4)c4ccccc4c3=O)CC2)c1C	-3	116	68	105
Next results:
SMILES	HCMV NEC inh	Sa growth 42C	Sa growth 42C second temp	GIV Gai3 FP
O=S(=O)(/N=C(\OC1CCCCC1)c1ccccc1)c1ccccc1	nt	129	75	103
Clc1ccc2c(c1)nc1n2CCN(Cc2ccco2)C1	-18	nt	nt	97
Cc1cccc(S(=O)(=O)c2cn(Cc3ccccc3)c3cc(N4CCOCC4)c(F)cc3c2=O)c1	nt	110	87	104
CN(C)CCNC(=O)c1ccc(-n2c(=S)[nH]c3ccccc3c2=O)cc1	-27	97	88	102
COC(=O)c1sccc1NC(=O)C1CC1	-16	95	89	102
CCCCn1c(CN2C(=O)NC3(CCCCC3C)C2=O)nc2cc(S(=O)(=O)N3CCOCC3)ccc21 (stereo unspecified)	8	123	97	nt
Cc1ccc(-n2c(=O)c3ccc(C(=O)NCc4ccco4)cc3n(Cc3ccccc3C#N)c2=O)cc1	12	94	108	101
COc1ccc(C2CC(=O)c3cc(-c4nc(-c5cccc([N+](=O)[O-])c5)cs4)c(=O)n(-c4cc(C)cc(C)c4)c3C2)cc1 (stereo unspecified)	-10	100	90	102
Cc1nn(C(=O)c2ccc(F)cc2)c(N)c1-c1ccccc1	-2	100	93	nt
Clc1ccc(-c2nnc3ccccn23)cc1	-21	93	96	108
O=C(c1csc(S(=O)(=O)NCc2ccc(Cl)cc2)c1)N1CCCC1	-26	nt	nt	107
Nc1ccc(F)cc1S(=O)(=O)Nc1ccc(Br)cc1	-11	105	96	nt
Cn1nc(-c2ccccc2)c(-c2ccccc2)c(C(=O)OCC2CCCO2)c1=O (stereo unspecified)	-9	nt	nt	101
Nc1ccc(Oc2ccc(C(=O)O)cc2)cc1	-10	86	90	109
CC1CCCCN1S(=O)(=O)c1ccccc1C(=O)N1CCCCCC1 (stereo unspecified)	8	102	98	nt
Oc1cccc(Oc2ccccc2)c1	-10	90	85	107
COc1ccc(-n2nnnc2SCC(=O)NCC(C)C)cc1	-7	101	85	nt
CC1CCCN(Cc2c(O)ccc3c(=O)c(Oc4ccccc4Cl)c(C(F)(F)F)oc23)C1 (stereo unspecified)	-18	94	85	99
Cc1ccc(S(=O)(=O)N2CCCc3cc(C(=O)Nc4ccc(S(N)(=O)=O)cc4)ccc32)cc1	9	nt	nt	107
COc1cccc(OC)c1C(=O)Nc1nnc(C2CCCCC2)s1	-7	85	52	105
Cc1coc2cc3oc(=O)c(CC(=O)NCc4ccccc4)c(C)c3cc12	-36	108	93	100
COc1ccc(CNC(=O)C2CCCN(c3ncnc4c3nc3n4CCCCC3)C2)cc1 (stereo unspecified)	-19	105	93	106
Cc1ccc(CS(=O)Cc2ccc(C(=O)NCC(C)c3ccccc3)o2)cc1 (stereo unspecified)	-6	100	93	106
COc1ccc(-c2cc(C(C)=O)c(C)n2CCC(=O)Nc2ccc(C)c(Cl)c2)cc1	nt	103	90	105
Cc1ccc(C)c(N2CCN(C(=O)C3CCCN(S(=O)(=O)c4ccc5c(c4)oc(=O)n5C)C3)CC2)c1 (stereo unspecified)	-36	92	81	104
(listing goes on)
SMILES	HCMV NEC inh	Sa growth 42C	Sa growth 42C second temp	GIV Gai3 FP
CCCc1cc(N2CCN(c3ccc(F)cc3)CC2)n2nc(-c3ccco3)nc2n1	-17	nt	nt	104
O=c1cc(O)nc2ccccn12	-8	98	89	104
CC1CC(C)(C)CC2(C1)NC(=O)N(CC(O)c1ccccc1)C2=O (stereo unspecified)	2	92	94	nt
CC1CCCCN1C(=O)CSc1nnc(-c2ccccc2Cl)o1 (stereo unspecified)	-6	102	74	104
N#CCCn1nc(-c2ccccc2)c2c1Nc1ccccc1NC2c1ccc(F)cc1 (stereo unspecified)	-4	83	85	nt
CC(C)NC(=O)CSc1nc2ccccc2nc1N1CCCCC1	5	95	92	101
CCOC(=O)C(Cc1ccccc1)C(=O)N1CCCc2ccccc21 (stereo unspecified)	-6	123	96	94
Clc1ccc(N2CCN(c3nn4nnnc4c4ccccc34)CC2)cc1	-29	nt	nt	97
Oc1ccc(/C=N/c2nccs2)cc1	-7	101	66	nt
NCc1ccc(CN2CCCCCC2)cc1	-13	108	96	105
O=C(COC(=O)c1ccc(N2CCCC2=O)cc1)c1ccc(OC(F)F)cc1	-17	77	88	nt
CCOc1cc2c(cc1/C=C(\C#N)c1ccc(C(F)(F)F)cc1)OCO2	nt	106	79	105

Sorted by SMILES length (smallest number first): part of the list above.
SMILES	HCMV NEC inh	Sa growth 42C	Sa growth 42C second temp	GIV Gai3 FP
O=c1cc(O)nc2ccccn12	-8	98	89	104
Oc1cccc(Oc2ccccc2)c1	-10	90	85	107
NCc1ccc(CN2CCCCCC2)cc1	-13	108	96	105
Oc1ccc(/C=N/c2nccs2)cc1	-7	101	66	nt
Clc1ccc(-c2nnc3ccccn23)cc1	-21	93	96	108
Nc1ccc(Oc2ccc(C(=O)O)cc2)cc1	-10	86	90	109
COc1ccc(-n2nnnc2SCC(=O)NCC(C)C)cc1	-7	101	85	nt
CC(C)NC(=O)CSc1nc2ccccc2nc1N1CCCCC1	5	95	92	101
CC1CCCCN1C(=O)CSc1nnc(-c2ccccc2Cl)o1 (stereo unspecified)	-6	102	74	104
COc1cccc(OC)c1C(=O)Nc1nnc(C2CCCCC2)s1	-7	85	52	105
CCOC(=O)C(Cc1ccccc1)C(=O)N1CCCc2ccccc21 (stereo unspecified)	-6	123	96	94
CC1CCCCN1S(=O)(=O)c1ccccc1C(=O)N1CCCCCC1 (stereo unspecified)	8	102	98	nt
Clc1ccc(N2CCN(c3nn4nnnc4c4ccccc34)CC2)cc1	-29	nt	nt	97
CC1CC(C)(C)CC2(C1)NC(=O)N(CC(O)c1ccccc1)C2=O (stereo unspecified)	2	92	94	nt
Cc1coc2cc3oc(=O)c(CC(=O)NCc4ccccc4)c(C)c3cc12	-36	108	93	100
CCOc1cc2c(cc1/C=C(\C#N)c1ccc(C(F)(F)F)cc1)OCO2	nt	106	79	105
O=C(COC(=O)c1ccc(N2CCCC2=O)cc1)c1ccc(OC(F)F)cc1	-17	77	88	nt
Cn1nc(-c2ccccc2)c(-c2ccccc2)c(C(=O)OCC2CCCO2)c1=O (stereo unspecified)	-9	nt	nt	101
COc1ccc(-c2cc(C(C)=O)c(C)n2CCC(=O)Nc2ccc(C)c(Cl)c2)cc1	nt	103	90	105
CC1CCCN(Cc2c(O)ccc3c(=O)c(Oc4ccccc4Cl)c(C(F)(F)F)oc23)C1 (stereo unspecified)	-18	94	85	99
Cc1ccc(S(=O)(=O)N2CCCc3cc(C(=O)Nc4ccc(S(N)(=O)=O)cc4)ccc32)cc1	9	nt	nt	107
Cc1ccc(C)c(N2CCN(C(=O)C3CCCN(S(=O)(=O)c4ccc5c(c4)oc(=O)n5C)C3)CC2)c1 (stereo unspecified)	-36	92	81	104

The order is random; any-hit rate near 0.79%.
